# Assay outcomes: PubChem, National Center for Advancing Translational Sciences (NCATS)
# NS1 function inh = influenza NS1 inhibition. S. cerevisiae slowed by influenza A NS1, growth recovery by OD600. Potency, µM (top dose mostly 46.1 µM), without a hit: top-dose activity, positive = more growth. 270,000 tested, 0.4% active. AID 2326; active means well fitted rising curve with a large enough effect; inconclusive means small, poorly fitted or top-dose-only effect; inactive means no such curve, though single readings can be large or run the other way; also: nearly all actives have a fitted effect of over 50% in size
#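 S. cerevisiae expressing influenza A NS1, grown in glucose, washed, then diluted 1:100 into pH 6.0 -URA galactose medium with 23 nl compound. Growth recovery read as OD600; NS1-free strain serves as control.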
# 2A StopGo = FMDV 2A StopGo reporter, luciferase signal | human cells with a luciferase reporter of 2A StopGo recoding; control for the full effect not named in the record | Potency, µM (series often up to 57.9 µM), without a hit: at the top dose signal change, negative = less light | AID 1159524 | 410,000 tested, 1.2% active; active = well fitted falling curve with a large enough effect; inconclusive = small, poorly fitted or top-dose-only effect; inactive = no such curve, though single readings can be large or run the other way; tested in HEK293T cells; also: % is scaled to controls: 0 for no effect and ±100 for the full control effect; nearly all actives have a fitted effect of over 45% in size; luciferase light after 4 h
# Cruzain Triton = inhibitors of Trypanosoma cruzi cruzain with detergent; P25779; purified cruzain, Z-FR-AMC fluorescence, 0.01% Triton; Potency, µM, without a hit: max response, negative = inhibition, hits mostly inhibitors; 200,000 tested, 0.43% active; AID 1478;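 also: plate controls were neutral wells for no effect and buffer without enzyme for full effect; nearly all actives have a fitted effect of over 40% in size; top concentration of the series not given in the record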
# Target sequence (P25779 123-467 limits assumed): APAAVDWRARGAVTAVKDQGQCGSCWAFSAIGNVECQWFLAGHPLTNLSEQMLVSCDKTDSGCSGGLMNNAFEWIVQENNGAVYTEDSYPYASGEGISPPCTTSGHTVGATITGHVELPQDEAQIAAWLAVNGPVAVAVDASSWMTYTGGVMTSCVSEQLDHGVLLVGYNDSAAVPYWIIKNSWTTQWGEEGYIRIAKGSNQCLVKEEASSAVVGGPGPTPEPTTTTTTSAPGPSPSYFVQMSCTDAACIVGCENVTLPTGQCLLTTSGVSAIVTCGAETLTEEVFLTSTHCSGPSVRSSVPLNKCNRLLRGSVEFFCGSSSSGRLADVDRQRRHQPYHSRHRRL
#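 Sodium acetate buffer (100 mM, pH 5.5) containing 5 mM DTT and 0.01% Triton X-100 hosted 1.5 nM cruzain and test compound for 15 min at room temperature. Cleavage of 2 uM Z-FR-AMC was then tracked by fluorescence.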
# RE007 growth inh = less growth of the S. pombe RE007 Vpr strain; S. pombe RE007 Vpr strain, BacTiter-Glo ATP luminescence, 24 h; control for the full effect not named in the record; Potency, µM (doses to about 92.2 µM), for the others: top-dose activity change, negative = less growth; AID 651644; 360,000 tested, 0.21% active; active = well fitted falling curve with a large enough effect; inconclusive = small, poorly fitted or top-dose-only effect; inactive = no such curve, though single readings can be large or run the other way;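 also: % is scaled to controls: 0 for no effect and ±100 for the full control effect; nearly all actives have a fitted effect of over 50% in size; the assay follows cell death caused by Vpr and the record does not say whether a fall means rescue or toxicity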
#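 Fission yeast strain RE007, carrying one chromosomally integrated HIV-1 vpr copy, was seeded at OD 0.01 in PMG+AL medium with 23 nL pinned compound. After 24 h at 30 °C and 99% humidity, viability was read by BacTiter-Glo luminescence.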
# MARV entry inh = Marburg virus entry inhibition. 300,000 tested, 1.8% active. Marburg virus pseudotyped entry inhibition, cell reporter; control for the full effect not named in the record; about a third of the inactives were read at about 46 µM. AID 540276. Potency, µM (doses to about 37.8 µM), without a hit: top-dose activity change, negative = inhibition, most hits filed as inhibitors; active = well fitted inhibition curve with a large enough effect; inconclusive = small, poorly fitted or top-dose-only effect, or effect the other way; inactive = flat fitted curve, though single readings scatter; tested in HEK293 cells; about a fifth of its hits are not listed in these tables; also: % is scaled to controls: 0 for no effect and ±100 for the full control effect; luciferase read-out
# SARS PLpro yeast = SARS-CoV PLP inhibition in yeast. 330,000 tested, 0.19% active. Potency, µM (series often up to 32.9 µM), for inactives: at the highest dose activity, positive = growth rescue. S. cerevisiae expressing SARS-CoV PLpro, growth rescue; control for the full effect not named in the record; active means well fitted rising curve with a large enough effect; inconclusive means small, poorly fitted or top-dose-only effect; inactive means no such curve, though single readings can be large or run the other way; also: 0% is about no effect; nearly all actives have a fitted effect of over 55% in size; growth read by luminescence after 48 h
# Lassa entry inh = Lassa virus entry inhibition; Lassa virus pseudotype entry inhibition, cell reporter; control for the full effect not named in the record; Potency, µM (series often up to 37.9 µM), for the others: at the highest dose activity change, negative = inhibition, most hits filed as inhibitors; 300,000 tested, 1.2% active; AID 540256; active means well fitted inhibition curve with a large enough effect; inconclusive means small, poorly fitted or top-dose-only effect, or effect the other way; inactive means flat fitted curve, though single readings scatter; tested in HEK293 cells; also: % is scaled to controls: 0 for no effect and ±100 for the full control effect; nearly all actives have a fitted effect of over 50% in size; luciferase read-out
# Cruzain inh noDet = blocks cruzain activity in detergent-free assay. 200,000 tested, 2.3% active. Potency, µM, inactives show max response, negative = inhibition, most hits filed as inhibitors. AID 1476. purified cruzain, Z-FR-AMC fluorescence, no detergent. P25779;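 also: plate controls were enzyme without inhibitor for no effect and buffer without enzyme for full effect; nearly all actives have a fitted effect of over 40% in size; top concentration of the series not given in the record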
#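 Detergent-free condition (0.00005% Triton X-100) in acetate buffer pH 5.5 with DTT. 1.5 nM enzyme and compound were pre-mixed 15 min, then 2 uM Z-FR-AMC substrate added; reaction progress from fluorescence change between first and third reads (60 s).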
# Numbers without * were called inactive; ? = inconclusive; . = no result given; & = joins results of further samples; [ ] = dose if it differs, or a comment. Unless noted, calls follow the shape of the dose curve; as a rule, active = well fitted curve in the direction sought with a large enough effect; inconclusive = small, poorly fitted or top-dose-only effect, or another doubt; inactive = no such curve, though single readings can be large; an effect the other way counts as inactive or inconclusive. Potency is read from the fitted curve at half-maximal effect. Compounds as they come; 4.8% or so of the library scored in one or more.
# Every second line gives: NS1 function inh	2A StopGo	Cruzain Triton	RE007 growth inh	MARV entry inh	SARS PLpro yeast	Lassa entry inh	Cruzain inh noDet
Cc1ccc2c(c1)CCCN2C(=O)c1ccncc1
→ -2%	-7%	-4.7%	1%	4%	3%	3%	-3%
CCc1cnc2c(c1SCCC(C)C)c(=O)n(C)c(=O)n2C
→ .	-14%	-4.4%	.	.	.	?	2%
CCOC(=O)c1cc(-c2ccc(C)cc2)nn1Cc1ccccc1
→ .	51%[activator]	-7.8%	.	?	.	?	-3%
CCN(CC)S(=O)(=O)c1ccc2nc(CSc3nnnn3-c3ccc(O)cc3)[nH]c2c1
→ -10%	?	-2.0%	8%	-3%	4%	-25%	-13%
COC(=O)NNC(=O)C(C)Oc1ccc(Cl)cc1Cl (stereo not given)
→ 9%	-13%	5.3%	-3%	24%	2%	5%	-1%
COc1cc(Nc2nc3ccc(Cl)cc3n3cnnc23)cc(OC)c1OC
→ 1%	-3%	.	-8%	4%[46.1 µM]	-1%	?	.
CCOC(=O)C1=C(CSc2nc(CC)c(C)cc2C#N)OC(N)=C(C#N)C1c1ccc(OC)cc1 (stereo not given)
→ 4%	5%	-10%	11%	-1%	1%	-1%	?
Oc1cc(OCc2ccccc2)ccc1-c1[nH]ncc1-c1ccccc1
→ -56%	0%	.	?	12%[46.1 µM]	-4%	-18%	.
CN1CCN(CCCNC(=O)CCCOc2cc(=O)n(C)c3ccccc23)CC1
→ -13%	-16%	4.4%	-14%	3%	-1%	0%	-7%
COc1ccc(NC(=O)NNC(=O)C(O)(c2ccccc2)c2ccccc2)cc1
→ -13%	-24%	.	3%	.	?	.	.
COc1ccc2c(c1)c(C(=O)N/N=C/c1ccc(Cl)cc1)c(C)n2C
→ -29%	6%	.	8%	?	-5%	?	.
Nc1ccc2c(c1)C(=O)c1ccc(Br)cc1-2
→ .	-1%	.	-8%	17%	.	3%	.
CN(C)S(=O)(=O)Nc1ccc(C(=O)O)cc1
→ -3%	5%	-5.3%	19%[3.69 µM]	13%	1%	12%	-10%
CC1CCCC(C)N1C(=O)CSc1nnnn1Cc1ccccc1 (stereo not given)
→ -5%	-6%	1.5%	19%	-5%[46.1 µM]	8%	8%	4%
O=C1CCCN1CCCNc1ncnc2sccc12
→ .	-15%	.	0%	17%[46.1 µM]	0%	.	.
CC(C)[C@]12CC(=O)[C@H](C)[C@H]1C2
→ .	-22%	6.7%	4%	.	-1%	.	-5%
C=CCSc1nnc2c(n1)OC(c1cccnc1)Nc1ccccc1-2 (stereo not given)
→ -6%	27%	1.0%	-15%	-5%[46.1 µM]	-1%	11%	-2%
CC(NC(=O)C(C)(C)C)c1nc2ccccc2n1C (stereo not given)
→ -6%	2%	3.2%	-12%	?	-5%	-2%	-2%
COc1cc(/C=N/N=C(/N)c2nonc2N)cc(Br)c1OCc1ccccc1C
→ -4%	?	3.1%	-14%	?	-7%	?	-25%
Cc1[nH]nc2cn[nH]c12
→ 10%	-19%	-2.4%	10%	-20%&-20%	4%	-10%	-1%
CCc1nc(N2CCCC2)c(C#N)c2c1CCCC2
→ -8%	-9%	1.9%	-17%	12%&12%	2%	18%	3%
Cc1ccccc1NS(=O)(=O)c1ccc(OCC(=O)N2CCCC2)cc1
→ 1%	5%	2.0%	4%	?	3%	16%	-5%
Cc1onc(-c2ccccc2)c1C(=O)Nc1ccc(N2CCOCC2)cc1
→ 1%	-10%	-3.2%	-5%	?	3%	-15%	2%
O=C(NCC(c1ccco1)N1CCOCC1)c1c(F)cccc1F (stereo not given)
→ .	-21%	.	-4%	-2%[46.1 µM]	-1%	11%	.
COc1ccccc1Nc1nnc(SCC(=O)Nc2nc(-c3ccc(F)cc3)cs2)s1
→ ?	-2%	.	-6%	.	0%	.	.
CC(C)c1ccc(-n2c(-c3ccccc3)c[n+]3c2CCc2ccccc2-3)cc1
→ .	11µM*	.	-16%	?	-2%	3.2µM*	.
COc1ccccc1N1CCN(C(=O)CCc2nnc3ccc(N4CCOCC4)nn23)CC1
→ 10%	2%	.	2%	-11%[46.1 µM]	0%	1%[46.1 µM]	.
O=[N+]([O-])c1ccc2nc(-c3ccccn3)[nH]c2c1
→ -49%	29%	.	?	?	?	?	.
CN(Cc1c(O)ccc2c1oc(=O)c1ccccc12)C1CCCCC1
→ 6%	-11%	-20%	-6%	?	-1%	-3%	-26%
Nc1cccc(C(=O)OCC(=O)Nc2cccc3c2C(=O)c2ccccc2C3=O)c1
→ ?	-9%	0.2%	18%	?	5%	?	-14%
O=C(NCCCn1ccnc1)c1ccc(Br)c(S(=O)(=O)N2CCOCC2)c1
→ -11%	-17%	0.0%	-1%	13%[46.1 µM]	-2%	-4%	1%
C/C(=C\C(=S)Nc1ccccc1)Nc1ccccc1
→ 20%	32%[activator]	-9.4%	-22%	-1%	20%	6%	0%
COc1cccc(C(=O)Nc2cccc(OCC(=O)c3ccccc3)c2)c1
→ -5%	?	.	-17%	.	0%	-27%	.
CCCCOCCCn1cnc2c([nH]c3cc(OC)ccc32)c1=O
→ -20%	?	-2.5%	8%	-17%[46.1 µM]	-5%	16%	1%
CCCCCCCN1N=C(C)C(C(=O)c2ccccc2)C1=O (stereo not given)
→ -216%	-22%	-0.6%	-2%	?	10µM*	-19%	6%
CN1CCC(OC(=O)c2cc3cc(Cl)cc(Cl)c3oc2=O)CC1
→ 10%	?	.	-17%	.	-4%	.	.
CCOC(=O)CSc1nnc(NC(=O)c2cccc(S(=O)(=O)N3CCCCCC3)c2)s1
→ 7%	12%	-4.3%	7%	-25%	0%	?	?
O=C(CN1C(=O)CN=C(c2ccccc2Cl)c2cc(Cl)ccc21)NCc1ccco1
→ -23%	-27%	-0.5%	1%	3%	-9%	-18%	6%
COC(=O)c1cccc(CN2C(=O)SC(Nc3ccccc3)C2=O)c1 (stereo not given)
→ -9%	21%	.	-15%	7%[46.1 µM]	5%	0%	.
COC(=O)c1ccc(OC)c(Cn2c(=O)n(C)c(=O)c3ccccc32)c1
→ 20%	-29%	.	8%	3%	0%	24%	.
O=[N+]([O-])c1cc(S(=O)(=O)N2CCCCC2)ccc1NCCCN1CCOCC1
→ .	-8%	.	7%	4%	-4%	17%	.
Cc1cccc(NC(=O)/C(C#N)=C/c2ccco2)c1
→ .	45%[activator]	-4.8%	.	.	.	?	3%
C[C@@H]1CCC[C@H](C)N1NC(=O)c1ccc(Cl)c(S(N)(=O)=O)c1
→ 18%	2%	1.6%&0.4%	-17%[18.4 µM]	4%	?	-1%	2%&3%
CN(Cc1ccccc1)S(=O)(=O)c1ccc(NC(=S)NC(=O)C2CCCC2)cc1
→ -14%	?	-3.1%	-2%	?	10%	?	2.5µM*
O=C(NCc1ccncc1)C1CCCN(S(=O)(=O)c2cc(Cl)ccc2Cl)C1 (stereo not given)
→ .	?	.	-10%	?	-1%	-20%	.
COc1ccccc1/C=N/NC(=O)CCn1cnc2ccccc21
→ 8%	-23%	-2.3%	4%	.	-30%	.	0%
O=C(COc1ccc2ccccc2c1Br)N1CCOCC1
→ -5%	23%	-4.8%	?	19%	-30%	?	?
Cc1ccc(-c2csc3ncnc(N4CCN(S(=O)(=O)c5cccs5)CC4)c23)cc1
→ .	?	.	-2%	?	-8%	?	.
O=C(NCc1ccc2c(c1)OCO2)c1ccc(Cl)c(S(=O)(=O)N2CCOCC2)c1
→ -2%	8%	0.7%	-13%	-6%	1%	-9%	0%
COc1ccc(CCNC(=O)c2ccc(CNc3c(N4CCOCC4)c(=O)c3=O)cc2)cc1OC
→ -2%	-15%	3.0%	13%	8%	1%	-2%	-6%
Cc1cccc2cc(CNCc3ccccc3)c(Cl)nc12
→ 1%	-1%	.	-11%	.	0%	.	.
O=C(O)CSc1c(O)c2ccccc2[nH]c1=O
→ 0%	-1%	.	-15%	.	0%	.	.
O=C(Nc1ccc(OC(F)(F)F)cc1)c1ccc(S(=O)(=O)N2CCOCC2)o1
→ 2%	?	.	8%	?	-1%	1%[46.1 µM]	.
O=C(c1cccc(Cl)c1)N1CCC(c2nc3ccccc3[nH]2)CC1
→ .	-14%	.	-9%	-1%[46.1 µM]	1%	-23%[46.1 µM]	.
O=C(Nc1nc2c(F)cccc2s1)c1ccco1
→ -139%	31%[activator]	.	-22%	.	-14%	.	.
CC1(c2nnc(-c3ccc(Cl)cc3)o2)CC(c2c(Cl)cccc2Cl)=NO1 (stereo not given)
→ -4%	-6%	.	-3%	.	-6%	.	.
Fc1ccccc1-n1c(-c2ccc3ccccc3n2)n[nH]c1=S
→ 4%	-16%	.	-17%	-6%[46.1 µM]	-2%	-9%[46.1 µM]	.
CCOc1ccc(N2C(=O)CC(NCC#N)C2=O)cc1 (stereo not given)
→ -66%	-17%	.	?	.	-23%	.	.
Cc1ccc(S(=O)(=O)N2CCOCC2)cc1C(=O)NC1CCSc2ccccc21 (stereo not given)
→ -13%	-16%	.	-4%	.	1%	.	.
COc1ccc(-c2cn(-c3ccccc3)nc2C(=O)O)cc1OC
→ -5%	6%	.	-10%	.	0%	.	.

# New compounds follow
# Every second line gives: NS1 function inh	2A StopGo	Cruzain Triton	RE007 growth inh	MARV entry inh	SARS PLpro yeast	Lassa entry inh	Cruzain inh noDet
CC(C)c1nnc(NC(=O)C2CCN(C(=O)Nc3ccccc3)CC2)s1
→ -1%	9%	.	-1%	?	-1%	-8%	.
CCN(CC(=O)Nc1c(F)cccc1F)C(=O)Cc1ccc2c(c1)CCC2
→ .	-14%	.	0%	2%[46.1 µM]	2%	?	.
CCc1cccc(C)c1NC(=O)Cn1c(=O)cc(C)c2c(C)nn(-c3cccc(F)c3)c21
→ .	-8%	-1.1%	.	.	.	-3%[46.1 µM]	1%
CNC(=O)C(=O)NCC1CCCN1S(=O)(=O)c1cccs1 (stereo not given)
→ .	-23%	.	0%	11%[46.1 µM]	0%	7%	.
CC(=O)n1cc(/C=N/NC(=O)c2ccc(Cl)cc2)c2ccccc21
→ -1%	20%	.	3%	.	-1%	.	.
